Arbovirus anti – arbovirus infection inhibition | inhibition, % at 10 µM | AID 1251 | arbovirus infection cell-based antiviral screen | hit rate 0.37% among 200,000;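 active = inhibition from about 30%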;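 also: bluetongue infection of BSR cells; cell survival read as ATP light after 72 h; 0% = infected wells without compound and 100% = uninfected wells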
YopH inh – YopH (Yersinia) phosphatase inhibition. fluorescence Ex485/Em525. inhibition, %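 (about 10 µM by stock and volumes)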. hit rate 0.16% among 140,000. AID 898;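 active = inhibition of 50% or more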;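 also: controls were vehicle for no effect and minimum signal wells for full effect; inactives centre near -20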
Mtb bLac sens – beta-lactam sensitization of Mtb H37Rv | AID 434955 | hit rate 0.27% among 330,000 | M. tuberculosis H37Rv growth with meropenem, percent inhibition; hits of this screen are not shown here | inhibition, % at 25 µM;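 active = about 74% or more and at least 40 points above the plate without the antibiotic, then above 30% in a dose series; inconclusive = first-round hits that could not be retested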;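 also: growth measured after seven days incubation then overnight dye step; 0% = bacteria only wells and 100% = bacteria with antibiotic; twin plates without the antibiotic show which effects depend on it; some results filed as inactive read as strong as hits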
RecA splice inh – Mtb RecA intein splicing inhibition; AID 2221; hit rate 0.75% among 290,000; P9WHJ3; cell-free RecA intein splicing, fluorescence; inhibition, %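 (about 9 µM by stock and volumes)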; in the data active = inhibition above about 30%; inconclusive = no clear call, values can overlap the other calls;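 also: 0% = vehicle wells and 100% = reference inhibitor control wells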
Target sequence (P9WHJ3 whole entry, looked up, canonical isoform): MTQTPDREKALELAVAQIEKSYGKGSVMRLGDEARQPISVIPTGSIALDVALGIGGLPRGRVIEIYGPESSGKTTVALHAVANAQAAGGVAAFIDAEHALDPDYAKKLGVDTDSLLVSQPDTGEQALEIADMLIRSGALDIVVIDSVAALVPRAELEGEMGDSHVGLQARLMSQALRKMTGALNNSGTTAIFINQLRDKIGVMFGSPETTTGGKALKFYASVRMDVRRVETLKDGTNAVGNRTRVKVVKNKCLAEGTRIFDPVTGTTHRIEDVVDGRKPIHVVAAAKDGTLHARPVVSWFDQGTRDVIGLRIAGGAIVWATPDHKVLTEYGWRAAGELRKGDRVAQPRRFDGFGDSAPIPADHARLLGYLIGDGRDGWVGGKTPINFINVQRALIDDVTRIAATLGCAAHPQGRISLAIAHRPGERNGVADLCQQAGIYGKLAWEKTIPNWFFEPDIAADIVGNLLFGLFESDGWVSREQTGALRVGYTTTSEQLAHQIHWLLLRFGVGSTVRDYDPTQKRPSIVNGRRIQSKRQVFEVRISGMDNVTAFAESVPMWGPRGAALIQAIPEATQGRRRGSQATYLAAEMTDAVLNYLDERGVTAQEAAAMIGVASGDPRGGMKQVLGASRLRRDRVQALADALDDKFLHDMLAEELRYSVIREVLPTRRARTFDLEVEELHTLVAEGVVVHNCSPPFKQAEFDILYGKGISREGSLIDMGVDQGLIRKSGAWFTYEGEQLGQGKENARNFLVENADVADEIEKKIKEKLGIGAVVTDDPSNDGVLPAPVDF
Mtb growth – M. tuberculosis H37Rv growth inhibitors, H37Rv strain (AID 1626); M. tuberculosis H37Rv growth inhibition; higher % means a stronger effect; one-dose inhibition, % at 10 µM; IC50 in µM for titrated hits; hit rate 0.95% among 220,000;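 active = confirmed in a dose series; inconclusive = inhibition above 80% but not taken into the dose series; inactive = below 80% or under 30% at every dose of the series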;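 also: bacteria incubated seven days before Alamar blue readout; 0% = bacteria only wells and 100% = bacteria with antibiotic wells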
Arbovirus anti repeat – second read-out of Arbovirus anti, no call of its own (marks repeat the call); inhibition, %; measured here: 10K subset replicate screen; many hits read low in the repeat;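 first of two repeat runs on a subset; 0% = infected and 100% = uninfected wells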
Starred values were filed as active, the others as inactive; ? = inconclusive; nt = not tested or not shown. Only part of the results is shown; rates above refer to the full screens.

SMILES	Arbovirus anti	YopH inh	Mtb bLac sens	RecA splice inh	Mtb growth	others
COC(=S)N/C(=N\S(=O)(=O)c1ccc(Cl)cc1)c1ccccc1	nt	nt	1	-1.7	nt
CCOC(=O)C(=CNc1ccc2c(c1)nnn2-c1ccc(Cl)cc1)C(=O)OCC	-37	-24	2	-0.4	9%
CCOC(=O)c1cc2nc(-c3ccccc3)cc(C)n2n1	nt	nt	-2	-1.0	nt
Cc1ccc2nc(N3CCN(Cc4nnnn4C4CCCC4)CC3)c(C#N)cc2c1	-2	9	-5	1.4	-12%
COc1ccccc1-c1noc(CCCC(=O)N2CCOCC2)n1	nt	nt	2	-3.1	-5%
CCN1C(=O)[C@H]2[C@@H](c3ccc(C)cc3)N3C(=O)N(c4ccc(OC)cc4)C(=O)[C@@]3(Cc3ccccc3)[C@H]2C1=O	nt	nt	0	0.7	nt
C=C(C(=O)c1ccccc1)C(C(=C)C(=O)c1ccccc1)c1ccc(OC)cc1	nt	nt	-14	0.1	10%
CCOC(=O)C1=C(O)C(=O)N(c2ccc(S(N)(=O)=O)cc2)C1c1ccc(Br)cc1 (stereo not drawn)	nt	nt	-4	0.7	0%
O=C(NCc1nc2ccccc2[nH]1)C1=C[C@H](C2CC2)C[C@H](OCc2ccc(CO)cc2)O1	nt	nt	-10	0.7	-8%
CCOCCCN(C)C1CCN(C(=O)c2oc3ccccc3c2NC(=O)c2ccc(F)cc2)CC1	nt	nt	-9	-0.1	nt
Cc1cccc(C(=O)Oc2ccccc2/C=N/NC(=O)c2ccc(NC(=O)C(C)(C)C)cc2)c1	-18	16	4	1.2	13%
Cc1nc2c(=O)n(-c3ccc(F)cc3F)nc(C)c2s1	nt	nt	73	0.0	-15%
COc1ccc(C2(C(=O)Nc3ccc(OC)cc3OC)CCCC2)cc1	10	nt	-2	5.8	39%
COC(=O)C1=C(C(=O)OC)[C@@H]2N(Cc3ccccc3)c3ccccc3[C@@]23C[C@@H](C(=O)OC)N(C(=O)c2cc(C)oc2C)C3=N1	nt	nt	3	4.7	0%
C=CCN(C(=O)CCC(=O)Nc1cc(C)on1)C(C(=O)NC(C)(C)CC)c1cccc(OC)c1OC (stereo not drawn)	nt	nt	2	-2.2	nt
CCOC(=O)CCCCCNC(=O)c1ccc(F)cc1F	nt	nt	22	0.4	-5%
Cc1cccn2c(=O)c3cc(C(=O)NC4CCCC4)c(=N)n(C4CCCCC4)c3nc12	nt	nt	9	-188	nt
COc1cc(OC)c(S(=O)(=O)Nc2ccccc2N2CCCCC2)cc1NC(C)=O	nt	nt	-5	-0.5	-6%
Cc1ccc(S(=O)(=O)N(C)CC(=O)Nc2cccnc2)cc1	nt	nt	-7	-0.8	nt
N#Cc1ccc(CSc2nnc(-c3cnccn3)o2)cc1	3	-9	3	-0.8	-8%

Part of the list above in order of SMILES length, descending.
SMILES	Arbovirus anti	YopH inh	Mtb bLac sens	RecA splice inh	Mtb growth	others
O=C(NCc1nc2ccccc2[nH]1)C1=C[C@H](C2CC2)C[C@H](OCc2ccc(CO)cc2)O1	nt	nt	-10	0.7	-8%
Cc1cccn2c(=O)c3cc(C(=O)NC4CCCC4)c(=N)n(C4CCCCC4)c3nc12	nt	nt	9	-188	nt
CCOC(=O)c1cc2nc(-c3ccccc3)cc(C)n2n1	nt	nt	-2	-1.0	nt

Next section
SMILES	Arbovirus anti	YopH inh	Mtb bLac sens	RecA splice inh	Mtb growth	others
CCc1ccccc1NC(=O)c1ccc2c(O)c(S(=O)(=O)c3ccc(OC)cc3)c(=O)[nH]c2c1	nt	nt	2	-2.0	nt
CCCCNC(=O)CC1NCCNC1=O (stereo not drawn)	-3	nt	-12	2.0	1%
CNC[C@H](CC1CCCCC1)NC[C@H](NCCC1CCCC1)[C@H](C)O	nt	nt	31	2.0	nt
COC(=O)c1ccccc1NC(=O)CSc1nnnn1-c1ccc(C)cc1C	3	-12	-8	-1.8	-7%
O=C(NCCCc1ccccc1)c1cc(COc2c(F)cccc2F)on1	nt	nt	13	6.6	nt
CCOc1nc2ccccc2nc1NS(=O)(=O)c1ccccc1	7	-53	0	1.0	-3%
N#Cc1c(N)[nH]c(=S)c(C#N)c1-c1ccccc1	10	-4	?	nt	-4%
CCN=C1NN=C(c2cc(C)n(Cc3ccco3)c2C)CS1	3	-25	3	12	9%
COc1ccccc1-c1c(C)oc2cc(OC(=O)c3ccco3)ccc2c1=O	-3	-29	1	31*	-16%
CCOC(=O)CC(=O)NC1(Cc2ccc(O)cc2)CCCCC1	-1	nt	1	2.2	-10%
OCCn1nc(-c2ccccc2)cc1-c1ccccc1	nt	nt	-4	2.5	nt
O=C1C2CC=CCC2C(=O)N1c1cccc(OS(=O)(=O)c2ccc3ccccc3c2)c1 (stereo not drawn)	7	-45	6	-1.8	-15%
COc1ccc(-c2[nH]ncc2-c2ccc(Cl)cc2)c(O)c1	-30	-32	82	7.6	9%
COCCn1c(=S)[nH]c2cc(C(=O)N3CCc4ccccc43)ccc2c1=O	10	-43	0	4.7	-3%
O=C(N=C1c2ccccc2CN1c1cccc(Cl)c1)c1cccnc1	5	-17	4	6.4	-4%
c1ccc(N2CCN(CCc3nnc4n3CCCCC4)CC2)cc1	3	-19	7	-2.5	-6%
O=C(/C=C/c1cccs1)N1CCC2(CC1)Oc1ccc(Cl)cc1C(=O)C21CC(c2ccc(Cl)cc2)=NO1 (stereo not drawn)	nt	nt	11	2.7	-2%
O=C(Cc1ccccc1)NNC(=O)c1ccccc1C(=O)O	nt	nt	-5	2.3	-5%
O=C(C1CC(=O)N(c2ccccc2)C1)N1CCN(C2=NS(=O)(=O)c3ccccc32)CC1 (stereo not drawn)	5	2	-12	1.9	-5%
Cc1ccc(CN2CCN(/N=C/c3cc(Br)cc(Br)c3O)CC2)cc1	12	-26	5	0.1	5%
CCn1c2ccccc2c2cc(NC(=O)COC(=O)c3ccc(O)cc3)ccc21	nt	nt	-3	1.2	nt
c1ccc(-n2ncc3c(NCc4cccs4)ncnc32)cc1	-16	-16	9	-1.9	0%
CCN(CC)c1ccc(C(=O)N/N=C/c2ccccc2OC(F)F)cc1	-22	nt	11	1.9	1%
Cc1ccc(S(=O)(=O)Nc2c(NC3CCCCC3)c3ccccc3oc2=O)cc1	nt	nt	-3	2.5	nt
Cc1ccc(NC(=O)CSCC(=O)N2CCN(c3cccc(C(F)(F)F)c3)CC2)cc1	nt	nt	1	-0.2	nt
O=C(Nc1ccccc1Cl)Nn1cnnc1	nt	nt	-3	0.4	nt
CCOc1cc(C2C(C(=O)OC)=C(C)N=C3SC(C)C(=O)N32)ccc1OC(C)=O (stereo not drawn)	3	7	-5	-0.1	-6%
Cc1ccc(Sc2nc(-c3ccccc3)nnc2C(F)(F)F)cc1	10	-36	33	27	13%
O=C(/C=C/c1cccc([N+](=O)[O-])c1)Nc1ccccn1	-2	nt	-6	-3.3	-3%
COC(=O)c1sccc1NC(=S)Nc1ccccc1	1	-18	2	-3.5	-7%
CCOc1cc(/C=C2\C(=O)NC(=O)N(C)C2=O)cc([N+](=O)[O-])c1O	nt	nt	-1	-2.5	nt
O=C(c1cccc(N2C(=O)C3C4C=CC(C4)C3C2=O)c1)N1CCCc2ccccc21 (stereo not drawn)	16	nt	-9	3.7	-6%
COc1ccc(Cc2nnc(NC(=O)c3ccc(OC)c(OC)c3)s2)cc1	nt	nt	-1	-0.1	nt
CSc1nc(-c2ccccc2)nc(N2CCCC2)c1C(C)=O	1	-36	47	17	10%
N#Cc1ccc(Oc2c(Cl)cncc2Cl)cc1	nt	nt	-3	-0.6	nt
Cc1c(-n2c(CN3C(=O)c4ccccc4C3=O)nc3ccccc3c2=O)c(=O)n(-c2ccccc2)n1C	-1	4	-2	3.5	-11%	Arbovirus anti repeat=-4
Cc1cc(-c2ccc(S(=O)(=O)N3CCc4ccccc4C3)s2)on1	nt	nt	0	-0.3	nt
CC1(C)C[C@@H]2C[C@@](C)(CN2C(=O)c2cc(COc3cccc(C(F)(F)F)c3)on2)C1	nt	nt	-2	-1.7	nt
CCCC/C(C)=N/NC(=O)CN(c1ccc(Br)cc1)S(=O)(=O)c1ccccc1	-3	-13	-1	2.1	3%
COc1ccc(/C=C2/NC(=O)CNC2=O)cc1	nt	nt	2	1.9	nt
CN1CCN(C(=S)NC(=O)c2ccccc2Br)CC1	nt	nt	2	1.8	nt
COc1ccc2[nH]c(C)c(C(=O)CN3CCc4cc(OC)c(OC)cc4C3)c2c1	6	-31	-14	-3.2	nt
O=C(N/N=C/c1ccccc1O)c1cc(=O)[nH]c2ccccc12	-2	-42	4	1.0	1%
CCOC(=O)c1c(C)n(-c2ccc(OC)cc2)c2c(C/C(C)=N/O)c(Br)c(OC)c(O)c12	1	3	0	-2.3	3%
CCc1n[nH]c(=S)n1/N=C/c1cc(Br)c(OC)cc1OC	-5	-25	1	1.2	-2%
CCOc1ccc(S(=O)(=O)NCCSCc2ccco2)cc1	12	-18	5	4.6	-1%
CCC(CC)C(=O)NCCc1cc2cc(C)c(C)cc2[nH]c1=O	-3	-19	6	0.9	-5%
CN(CC(=O)Nc1ccccc1Cl)C(=O)c1ccc(-c2cccc(C(F)(F)F)c2)o1	nt	nt	-3	0.5	nt
CC(NC(=O)COC(=O)c1ccccc1SCC(=O)N1CCCC1)c1ccccc1 (stereo not drawn)	nt	nt	-4	2.5	nt
O=C(Cn1c(SCC(=O)NC2CCCC2)nnc1-c1ccncc1)Nc1ccc2c(c1)OCO2	2	-22	1	nt	-3%
CCOC(=O)c1sc(NC(=O)CSc2nc(C)cc(-c3ccccc3)n2)c(C#N)c1C	12	-40	14	-0.7	-5%
O=C(CN1C(=O)NC2(CCCC2)C1=O)Nc1cccc(C(F)(F)F)c1	nt	nt	-2	-0.6	nt
Cc1cc(C(=O)NCc2ccccc2)c(=O)[nH]c1C	-1	-7	3	-0.6	-21%	Arbovirus anti repeat=-6
COC(=O)C1=C(C)N(CCC2=CCCCC2)C(=O)C1	-4	17	27	-0.2	-6%
CC1CCN(c2c(NCC3CCC(C(=O)N4CCc5ccccc5C4)CC3)c(=O)c2=O)CC1 (stereo not drawn)	-23	-37	1	2.8	11%
COCCNC(=S)N/N=C(\C)c1cc2ccccc2o1	-2	-17	89	5.0	?
C[C@H](NS(=O)(=O)c1ccccc1)C(=O)OCC(=O)NC(=O)Nc1ccc2c(c1)OCCO2	-10	-20	63	-1.3	76%
COc1ccc(NC(=O)C2CC(=O)N/C(=N/N=C/c3ccco3)S2)cc1 (stereo not drawn)	nt	nt	-2	1.0	3%
CCOC(=O)c1sc(=S)n(-c2cc(F)ccc2F)c1N	7	-41	-8	-3.5	8%
O=C(Nc1cccc(C(F)(F)F)c1)c1ccc2nc(-c3ccco3)c(-c3ccco3)nc2c1	-4	8	98	23	-3%

(next part)
SMILES	Arbovirus anti	YopH inh	Mtb bLac sens	RecA splice inh	Mtb growth	others
CCc1nonc1NC(=O)c1oc2ccc(Br)cc2c1C	nt	nt	-3	-1.9	nt
O=C(COC(=O)c1ccc(CO)cc1)Nc1ccc(OC(F)F)cc1	1	nt	7	2.1	6%
CCOC(=O)c1[nH]c(C)c(C(=O)C(C)C)c1C	0	14	-2	0.7	-1%
COc1ccc2c(c1)c(=O)oc1cc(OCC(=O)NCC3CCC(C(=O)O)CC3)ccc12 (stereo not drawn)	nt	nt	2	-3.9	nt
S=c1[nH]nc(-c2ccc(Br)cc2)n1-c1ccc(Br)cc1	nt	nt	5	-0.7	nt
CCOCCCNC(=O)c1cc(-c2ccc(Br)s2)nc2ccccc12	nt	nt	0	-5.4	nt
O=[N+]([O-])c1ccc(-n2ccnc2)cc1	nt	nt	-4	-1.5	-12%
O=C(NNC(=S)Nc1ccc(F)cc1)c1cccc([N+](=O)[O-])c1	nt	nt	-3	3.3	-5%
COc1ccc(N2C(=O)C3C(C2=O)C2C=CC3C23CC3)c([N+](=O)[O-])c1 (stereo not drawn)	3	nt	-3	-1.5	5%
COc1ccc(OC(C)C(=O)NC2CCCCCC2)cc1 (stereo not drawn)	nt	nt	-7	2.9	nt
O=[N+]([O-])c1cc(Cl)ccc1N1CCOCC1	6	nt	-11	1.9	-4%
COc1cc(OC)cc(-c2nc(=S)n3ccsc3n2)c1	8	nt	5	12	-2%
Cc1ccc2oc(=O)c3cc(C(=O)NCCCN4CCc5ccccc5C4)sc3c2c1	1	-31	10	2.1	nt
CCOc1ccc(C2CC(=O)NC3=C2C(=O)CCC3)cc1Cl (stereo not drawn)	1	-22	-3	nt	-3%
Cc1ccc(S(=O)(=O)NCC2CCC(C(=O)NCCCN3CCCC3=O)CC2)cc1 (stereo not drawn)	nt	nt	-2	-3.2	nt
COc1ccc(N2CCN(S(=O)(=O)c3cccc(C(F)(F)F)c3)CC2)cc1	10	-3	4	-0.5	-19%

Screening data (PubChem)
